BJeLR viability: MLPCN primary cell-based screen for lethality selective to Ras in HRASV12 cells. BJeLR (HRASV12) viability, CellTiter-Glo ATP luminescence, 48 h; reference of the scale not given here. inhibition, % (concentration not given with the values). 300,000 tested, 0.17% active;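 active = replicate mean above 50%; inconclusive = above 50% but judged a plate artefact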;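 note: 50 nL library stock added to about 25 µL; numbers are from one replicate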
Sa ugtP lethal: growth inhibition of ugtP-null S. aureus, primary screen, RN4220 ugtP deletion, OD600; 16 h; some inactives read as strong as hits; growth inhibition, % (no concentration beside the values); 330,000 tested, 0.54% active;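 active = z-score under -3 and OD600 up to 0.15 on both plates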;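 note: plate controls were untreated wells for no effect and antibiotic for full effect; wells of about 80 µL received 100 nL stock; the first replicate is given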
RN4220 kill: growth inhibition of S. aureus RN4220, primary screen, OD600 | 16 h | inhibition, % (concentration not given with the values) | 330,000 tested, 0.33% active;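 active = z-score of -3 or lower and OD600 up to 0.18 on both plates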;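 note: plate controls were untreated cells for no effect and reference antibiotic for full effect; stock transfer was 100 nL into about 80 µL; one replicate is shown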
Mtb hypoxia rep: PubChem AID 1159583 | M. tuberculosis hypoxia-regulated fluorescent reporter, fluorescence | fluorescence inhibition, % (concentration not given with the values) | 300,000 tested, 0.1% active;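 active = 35 to 45% if threefold the growth effect, above 45% if 1.5-fold the growth effect; inactive = the rest, general growth blockers included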;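 note: wells of about 50 µL received 100 nL stock; 0% = vehicle wells and 100% = reference inhibitor wells; whole bacteria with a GFP reporter of the hypoxia response; strong numbers were not always called active; many hits fall short of the cut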
Bead autofluor: compound fluorescence in toxin protease inhibitor counterscreen. 360,000 tested, 3.1% active. AID 624483. fluorescence intensity (no concentration beside the values). compound autofluorescence counterscreen, microsphere flow cytometry; stronger effect = higher value;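 active = at least 3 SD above the mean of all compounds, about 16000 in these data; inconclusive = too few beads counted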;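 note: 100 nL of 1 mM stock went into each well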
PrP 5UTR inh: inhibition of PrP 5' UTR reporter expression; 340,000 tested, 0.35% active; inhibition, % (no concentration beside the values); cell-based PrP 5' UTR mRNA reporter, plate reader;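 active = every replicate at 50% or more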;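 note: 0 = median of the neutral control wells; tested in H4 reporter cells; numbers are from one replicate; inactives centre near -14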
Mtb hypoxia rep growth: also measured in Mtb hypoxia rep; calls as there; growth inhibition, %; measured here: M. tuberculosis growth (absorbance);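 0% = vehicle and 100% = reference antibiotic; read after six days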
Active calls of the source: *; u = inconclusive; x = not tested or not shown. Hits appear at their usual frequency; overall some 4% were active at least once.

SMILES	BJeLR viability	Sa ugtP lethal	RN4220 kill	Mtb hypoxia rep	Mtb hypoxia rep growth	Bead autofluor	PrP 5UTR inh
Cc1nn(C)c(Cl)c1CN1CCN(C2CCCCC2)C(CCO)C1 (stereo unspecified)	-7	-6	2.3	0	-5	4891	-1
COc1cc(/C=N/NC(=O)c2ccc3c(c2)OCCO3)cc(Br)c1O	-4	x	x	x	x	5586	-28
Cc1cc2nccc(-c3ccc(F)cc3)n2n1	-3	6	5.3	-1	3	3643	-10
COC(=O)C/C=C/N(Cc1ccccc1OC)S(=O)(=O)CCl	x	0	4.0	2	11	3928	-20
COc1ccc(N2CCCn3c2nc2c3c(=O)n(Cc3ccc(F)cc3)c(=O)n2C)c(OC)c1	x	1	0.8	-2	-2	10072	-9
Cc1ccc(C(=O)NCCc2nnc3ccc(SCC(=O)Nc4ccccc4F)nn23)cc1	3	-1	2.4	5	2	4101	-13
O=C(NCCc1ccccc1)C1CC=CC2CCN(Cc3ccc(Cl)c(Cl)c3)C(=O)C21 (stereo unspecified)	x	6	-1.2	10	6	x	x
O=C(c1cccs1)N1CCN(CCc2ccccc2)CC1	-7	3	1.4	15	14	21277*	-10
Cc1cc(=O)n2[nH]c(COc3ccccc3)nc2n1	2	2	1.5	x	x	4346	-8
COCCNC(=O)CNS(=O)(=O)c1ccc2nc(C)sc2c1	8	3	8.0	11	6	2588	-14
Cc1ccc(/C=N/n2c(-c3ccccn3)n[nH]c2=S)o1	-5	x	x	x	x	4035	-30
CCc1c(C)nc2ncnn2c1NCCc1ccc(OC)cc1	32	1	2.2	1	2	10988	x
CC(=O)c1ccc(OCC(=O)N(C2CCCCC2)C2CCS(=O)(=O)C2)cc1 (stereo unspecified)	7	1	1.7	8	6	5055	-12
CCOc1ccc(C(=O)Nc2nc3ccccc3[nH]2)cc1OCC	-8	-4	1.9	-8	5	4623	-70
CC(NC(=O)CCNC(=O)N1CCn2c1nc1ccccc12)c1ccccc1 (stereo unspecified)	5	4	-1.3	13	3	6362	-5
COc1ccc(-c2nn(CCC#N)cc2/C=N/O)cc1	-4	x	x	x	x	4667	-21
O=C(NCCC1=CCCCC1)C1CCN(S(=O)(=O)c2ccccc2)CC1	-6	1	0.1	0	-6	4555	-24
Cc1[nH]n(-c2ccccc2)c(=O)c1C=NCCc1ccccc1	0	x	x	x	x	3318	-35
CC(=O)Nc1ccc(SCC(CC(C)C)N2CCN(CC(C)C)CCC2=O)cc1 (stereo unspecified)	x	3	3.3	9	10	x	x
O=C(NC1CCCCCC1)c1cccs1	5	-7	2.9	x	x	11428	-42
CC(=O)CCc1ccc2oc(C(=O)O)c(C)c2c1	8	8	-2.2	x	x	2325	-5
COc1ccc2oc(C(=O)N3CCN(S(=O)(=O)c4cccc([N+](=O)[O-])c4)CC3)c(C)c2c1	-7	5	-0.4	0	9	5752	-27
CC(C)C(NS(=O)(=O)c1cccs1)C(=O)N1CCc2ccccc2C1 (stereo unspecified)	4	6	1.0	x	x	2166	0
O=C(COC(=O)CNS(=O)(=O)c1cccc(F)c1)NCCc1ccccc1	x	6	5.8	12	5	5850	-10

4 consecutive compounds already listed, for reference:
SMILES	BJeLR viability	Sa ugtP lethal	RN4220 kill	Mtb hypoxia rep	Mtb hypoxia rep growth	Bead autofluor	PrP 5UTR inh
CC(=O)c1ccc(OCC(=O)N(C2CCCCC2)C2CCS(=O)(=O)C2)cc1 (stereo unspecified)	7	1	1.7	8	6	5055	-12
CCOc1ccc(C(=O)Nc2nc3ccccc3[nH]2)cc1OCC	-8	-4	1.9	-8	5	4623	-70
CC(NC(=O)CCNC(=O)N1CCn2c1nc1ccccc12)c1ccccc1 (stereo unspecified)	5	4	-1.3	13	3	6362	-5
COc1ccc(-c2nn(CCC#N)cc2/C=N/O)cc1	-4	x	x	x	x	4667	-21

The results go on.
SMILES	BJeLR viability	Sa ugtP lethal	RN4220 kill	Mtb hypoxia rep	Mtb hypoxia rep growth	Bead autofluor	PrP 5UTR inh
C=CCn1c(-c2cccc(OC)c2)n[nH]c1=S	-3	-3	-5.6	-3	1	2479	-24
CCc1ccc(C(=O)Nc2nc(C)cs2)s1	2	6	2.0	-6	0	5664	-38
CN1C(=O)C(C)(C)N(C(=O)c2cccc([N+](=O)[O-])c2)c2ccccc21	8	3	5.8	-3	-1	4071	-2
CCCc1nc2oc3c(NCCOCCO)ncnc3c2c2c1COC(C)(C)C2	-4	6	1.5	19	6	7131	-1
COc1ccc(-c2nnc(SCC3CCCO3)n2C)cc1 (stereo unspecified)	-4	7	2.4	10	1	4404	-18
CCOC(=O)C1=NN(c2ccccc2)C(c2ccccc2)CC1=O (stereo unspecified)	-9	12	1.1	12	5	3261	-8
NC(=O)c1ccsc1NC(=O)COC(=O)c1ccc([N+](=O)[O-])o1	x	24	4.4	24	12	4036	-9
Cc1cc(NC(=O)C2CC(c3cccc(Br)c3)=NO2)no1 (stereo unspecified)	-16	-5	0.8	5	13	6289	-2
O=C(Nc1ccc(N2CCN(Cc3ccccc3Cl)CC2)cc1)c1cccnc1	-1	-1	1.3	1	11	10577	-12
C/C(=N/NC(=O)c1cccs1)c1ccc(NC(=O)COc2ccc(Cl)cc2Cl)cc1	6	x	x	x	x	3620	7
CN(C)N1C(=O)CC(N2CCCCC2)C1=O (stereo unspecified)	-3	12	2.6	2	-1	3385	-13
CC(Sc1nnc(C2CC2)n1C1CC1)C(=O)Nc1cccc(S(=O)(=O)N2CCOCC2)c1 (stereo unspecified)	x	2	2.9	11	3	4059	-6

An excerpt from above in order of length of the SMILES, descending:
SMILES	BJeLR viability	Sa ugtP lethal	RN4220 kill	Mtb hypoxia rep	Mtb hypoxia rep growth	Bead autofluor	PrP 5UTR inh
CC(Sc1nnc(C2CC2)n1C1CC1)C(=O)Nc1cccc(S(=O)(=O)N2CCOCC2)c1 (stereo unspecified)	x	2	2.9	11	3	4059	-6
CN1C(=O)C(C)(C)N(C(=O)c2cccc([N+](=O)[O-])c2)c2ccccc21	8	3	5.8	-3	-1	4071	-2
C/C(=N/NC(=O)c1cccs1)c1ccc(NC(=O)COc2ccc(Cl)cc2Cl)cc1	6	x	x	x	x	3620	7
O=C(Nc1ccc(N2CCN(Cc3ccccc3Cl)CC2)cc1)c1cccnc1	-1	-1	1.3	1	11	10577	-12

Other compounds follow:
SMILES	BJeLR viability	Sa ugtP lethal	RN4220 kill	Mtb hypoxia rep	Mtb hypoxia rep growth	Bead autofluor	PrP 5UTR inh
COc1ccc(Cc2nn3c(-c4ccccc4Br)nnc3s2)cc1	-2	9	4.0	-1	-5	8265	7
Cc1nn(C)cc1CN1CCC(CO)(CCOc2ccccc2)CC1	12	12	3.0	-4	-3	5241	-18
COc1ccc(NC2CCCN(C(=O)C3(C)CCCCC3)C2)cc1 (stereo unspecified)	1	5	4.5	8	1	4689	-23
Cc1ccc(NC(=O)COC(=O)c2cc(=O)c3ccccc3o2)cc1F	x	7	2.4	3	-13	u	3
O=C(NN=Cc1cccs1)c1[nH]ncc1Br	x	5	-0.5	4	6	x	x
NC(=O)C1(NC(=O)[C@@H]2CC3(CC(c4cccc(NC(=O)c5cc([N+](=O)[O-])cc([N+](=O)[O-])c5)c4)=NO3)CN2C(=O)c2ccccc2)CC1 (stereo partly specified)	-5	x	x	x	x	3985	-8
CCOC(=O)C1=C(C)NC(C)=C(C(=O)OCC)C1/C=C/c1ccccc1	10	10	-3.9	3	-3	22125*	-35
Cc1ccc(CSCc2ccc(C(=O)NCC3CCCO3)o2)cc1 (stereo unspecified)	6	1	5.0	6	-5	4470	-11
Cc1cc(N)n(-c2nc3ccccc3s2)n1	12	0	2.7	7	11	4154	-79
CN1CCC(=O)N(CCOc2ccccc2)CC1	8	1	4.7	6	7	3016	5
CCN(CC)S(=O)(=O)N1CCC(C(=O)NCC2COc3ccccc3O2)CC1 (stereo unspecified)	4	5	0.2	2	3	11130	-31
CCN(C[C@H]1N[C@@](Cc2ccccc2)(C(=O)OC)[C@H]2C(=O)N(Cc3ccccc3)C(=O)[C@@H]12)C(=O)C1CCCCC1	x	-15	0.7	-9	4	2959	-32
CCCc1nnc(NC(=O)CCC(=O)NCc2ccccc2)s1	-4	9	3.0	9	-10	5081	-17
O=C(COCC(=O)N/N=C/c1ccccc1F)N/N=C/c1ccccc1F	2	x	x	x	x	2546	-20
CC12CC(NC(=O)N1CCc1ccccc1)c1cc(Cl)ccc1O2 (stereo unspecified)	0	-1	4.2	x	x	4635	-28
O=C(NCC1CCCO1)c1ccccc1NS(=O)(=O)c1ccc(F)cc1 (stereo unspecified)	x	-1	1.0	-3	-3	3779	-3
CC(=O)N1CCc2cc(S(=O)(=O)CCC(=O)NCc3ccc(F)cc3)ccc21	-1	6	0.5	-2	-4	4318	-18
COc1ccccc1NC(=S)NCCc1ccc(Cl)cc1	8	7	7.8	3	4	3578	-11
COc1ccc(S(=O)(=O)N2CCOC2CNC(=O)C(=O)NCc2ccc(F)cc2)cc1OC (stereo unspecified)	1	2	1.0	-4	0	6109	1
Cc1sc2ncn(CCn3cnc4sc(C)c(C)c4c3=O)c(=O)c2c1C	3	-6	4.3	14	16	2447	-16
CSCCC(NC(=O)c1ccccc1)C(=O)OCC(=O)Nc1ccc(C)c(Cl)c1 (stereo unspecified)	-7	-17	3.4	5	4	9168	-23
COc1ccccc1-n1ccnc1SCC(=O)NC1CCCC1	8	2	8.9	10	4	4223	-13
C[C@@H](C(=O)Nc1nc2ccc(F)cc2s1)N1C(=O)C2CC=CCC2C1=O (stereo partly specified)	1	x	x	x	x	3312	-19
CN(C)S(=O)(=O)c1ccc(NC(=O)COC(=O)c2ccccn2)cc1	3	4	0.0	2	2	2775	1
Cc1c(N=C(N)N=C(N)Nc2ccccc2)c(=O)n(-c2ccccc2)n1C	x	6	4.2	5	6	x	x
O=C(N/N=C/c1ccco1)c1ccc(NC(=O)c2ccccc2Cl)cc1	-7	x	x	x	x	4413	-20
COc1cc(C#N)ccc1OCC(=O)Nc1ccc(C)c(S(=O)(=O)N2CCOCC2)c1	-5	-8	0.3	5	2	4305	0
COC(=O)CSc1nc2ccccc2c(=O)n1C	0	8	4.5	14	6	3023	2
CC(=O)Nc1ccc(C(=O)COC(=O)C2CCCCC2)c(F)c1	x	4	6.7	14	6	4297	-92
O=C(Nc1ccc2c(c1)oc1ccc(S(=O)(=O)N3CCCC3)cc12)C1CC1	-7	2	0.2	8	-1	7323	-3
O=C(Nc1cccc(C(=O)O)c1)/C(=C\c1ccco1)NC(=O)c1ccc(Br)o1	0	-2	-1.8	5	-6	3733	-17
CC1CCCC(C)N1C(=O)COC(=O)CNC(=O)C12CC3CC(CC(C3)C1)C2 (stereo unspecified)	4	3	1.9	-1	0	u	-3

Screening results: PubChem BioAssay, several laboratories
